# miR-21 FLuc: raises the signal of a miR-21 reporter. HeLa miR-21 FLuc reporter, luciferase, 48 h. Potency, µM (doses to about 38.3 µM), without a hit: top-dose reporter change, positive = more light. 340,000 tested, under 10 active. AID 2288; active = well fitted rising curve with a large enough effect; inconclusive = small, poorly fitted or top-dose-only effect; inactive = no such curve, though single readings can be large or run the other way;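 also: % of control where 0% means no effect; miR-21 action dims this reporter so a rising signal means less miR-21 action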
#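 HeLa cells endogenously expressing miR-21, stably carrying CMV-driven firefly luciferase with a downstream miR-21 binding site, 2000 cells/well. Titrations up to approximately 40 uM, 48 hours; luciferase luminescence read.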
# GLA inh pH 4.5: blocks human alpha-galactosidase A at pH 4.5. activity change, negative = inhibition, % at 105 µM. purified enzyme, 4-MU-alpha-Gal fluorescence, pH 4.5. AID 1467. 230,000 tested, under 10 active; inconclusive = small, poorly fitted or top-dose-only inhibition, or a rising curve; inactive = flat fitted curve, though single readings scatter; no compound was filed as active;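 also: 0% = full activity with enzyme and -100% = basal without enzyme; dose as in the result columns while the protocol names 77 µM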
# Rango dissoc inh: inhibition of RanGTP-driven Rango-importin beta dissociation; Potency, µM (series often up to 46.1 µM), without a hit: at the highest dose activity change, negative = inhibition; hit rate 0.071% among 340,000; Biochemical FRET Rango-importin beta, RanGTP-induced dissociation; active means falling FRET ratio curve, often poorly fitted, with flat reads before Ran was added; inconclusive means other falling curves, or compound fluorescence or quenching; inactive means flat or rising ratio curve;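 also: potency is read from the fitted curve at half-maximal effect; % of control where 0% means no effect; nearly all actives have a fitted effect of over 45% in size; -100% = wells without RanGTP and RCC1; the record marks most hits as doubtful in a second field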
#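 Rango FRET biosensor (snurportin-1 IBB flanked by N-terminal EYFP and C-terminal CFP10) at 0.1 uM, with 0.25 uM importin beta in PBS, 1mM DTT, 0.02% Tween-20, 0.1% BSA. 0.6 uM Ran, 2mM GTP and 0.2 uM RCC1 were then added for 45 min at room temperature. Inhibition read as loss of FRET rise.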
# Rango complex inh: inhibitors of Rango-importin beta complex formation; Potency, µM (doses to about 92.2 µM), for inactives: top-dose inhibition of complex formation; Rango CFP/YFP FRET sensor + importin beta, 45 min; hit rate 0.031% among 340,000; active = rising FRET ratio curve, often small or poorly fitted; inconclusive = mostly compound fluorescence or quenching in the first reads; inactive = flat curves in all reads;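 also: potency is read from the fitted curve at half-maximal effect; 0% = DMSO wells and 100% = buffer wells lacking importin beta; nearly all actives have a fitted effect of over 15% in size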
# Target sequence (Q14974 whole entry, looked up): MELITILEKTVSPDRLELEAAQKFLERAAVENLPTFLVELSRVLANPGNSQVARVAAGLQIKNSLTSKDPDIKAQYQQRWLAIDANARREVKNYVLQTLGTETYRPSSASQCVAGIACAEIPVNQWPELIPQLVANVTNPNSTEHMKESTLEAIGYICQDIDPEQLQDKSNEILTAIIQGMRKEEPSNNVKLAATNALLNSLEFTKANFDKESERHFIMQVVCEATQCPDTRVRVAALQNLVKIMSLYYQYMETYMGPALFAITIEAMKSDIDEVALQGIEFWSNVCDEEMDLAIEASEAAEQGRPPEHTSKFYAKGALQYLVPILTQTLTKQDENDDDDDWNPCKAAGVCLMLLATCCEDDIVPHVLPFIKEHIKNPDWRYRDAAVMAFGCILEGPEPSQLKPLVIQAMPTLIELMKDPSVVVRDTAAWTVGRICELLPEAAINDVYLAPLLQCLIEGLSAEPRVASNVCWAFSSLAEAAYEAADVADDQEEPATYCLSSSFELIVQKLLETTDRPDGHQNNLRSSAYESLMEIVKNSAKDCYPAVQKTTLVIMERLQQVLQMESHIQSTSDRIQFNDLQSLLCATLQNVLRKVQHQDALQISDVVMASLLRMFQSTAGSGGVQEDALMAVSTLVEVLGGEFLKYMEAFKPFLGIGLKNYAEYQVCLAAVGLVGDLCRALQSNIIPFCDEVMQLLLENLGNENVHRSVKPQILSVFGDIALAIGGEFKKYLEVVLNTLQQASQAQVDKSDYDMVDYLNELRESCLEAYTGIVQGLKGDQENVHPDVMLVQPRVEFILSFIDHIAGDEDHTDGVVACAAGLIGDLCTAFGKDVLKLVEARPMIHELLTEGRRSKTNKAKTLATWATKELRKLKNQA
#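 Inhibition scored from the CFP 486 nm/YFP 530 nm FRET ratio 45 min after adding 0.125 microM importin beta to 50 nM Rango biosensor preincubated 5 min with compound (room temperature, PBS with DTT, Tween-20, BSA). No-importin wells as positive control.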
# * hit, by the source's call; ? = inconclusive; · = not tested or not shown; & = joins results of further samples.
# Start of the data: the first 6 compounds, ahead of the listing:
SMILES,miR-21 FLuc,GLA inh pH 4.5,Rango dissoc inh,Rango complex inh
Cc1cc(C)cc(N2C(=O)CC(Sc3nnnn3-c3ccccc3)C2=O)c1 (stereo unspecified),?,-28,1%,-1.6%
COc1ccc(NC(=O)c2cncc(Br)c2)c(S(=O)(=O)N2CCOCC2)c1,6%,7,-9%,2.2%
COc1ccc(CNC(=O)/C(C#N)=C/c2cccc(OC)c2OC)cc1,24%,·,-12%,-1.6%
COCCCNCCOCCSc1ccc(Cl)cc1,-1%,-24,2%,1.6%
O=C(CSc1nnc(-c2ccco2)n1Cc1ccccc1)c1ccccc1,-49%,0,2%,1.2%
CCOC(=O)c1sc(NC(=S)NC(=O)c2ccco2)nc1C,-21%,-1,-11%,0.0%

# Results, from the first entry:
SMILES,miR-21 FLuc,GLA inh pH 4.5,Rango dissoc inh,Rango complex inh
Cc1cc(C)cc(N2C(=O)CC(Sc3nnnn3-c3ccccc3)C2=O)c1 (stereo unspecified),?,-28,1%,-1.6%
COc1ccc(NC(=O)c2cncc(Br)c2)c(S(=O)(=O)N2CCOCC2)c1,6%,7,-9%,2.2%
COc1ccc(CNC(=O)/C(C#N)=C/c2cccc(OC)c2OC)cc1,24%,·,-12%,-1.6%
COCCCNCCOCCSc1ccc(Cl)cc1,-1%,-24,2%,1.6%
O=C(CSc1nnc(-c2ccco2)n1Cc1ccccc1)c1ccccc1,-49%,0,2%,1.2%
CCOC(=O)c1sc(NC(=S)NC(=O)c2ccco2)nc1C,-21%,-1,-11%,0.0%
C[C@@]12C(=O)Nc3ccc(Br)cc3C(=O)N1[C@H]1c3cc(Br)ccc3OC[C@@H]1[C@@H]2c1ccccc1,·,·,45%,0.6%
O=C(OCC(=O)c1ccc[nH]1)c1ccc(Cl)c(Cl)c1,·,·,9%,0.4%
COc1nc(Oc2ccc(C(=O)O)cc2)nc(Oc2ccc(C(=O)O)cc2)n1,0%,2,0%,-1.3%
COC(=O)c1ccc(NC(=O)CSc2nnc(CNc3ccc(F)cc3)n2C)cc1,-5%,-5,-1%,-1.8%
CC(C)(C)NC(=O)C(c1cccnc1)N(C(=O)c1csnn1)c1ccccc1 (stereo unspecified),-1%,4,?,-2.5%
O=C(CNC(=O)c1ccccc1F)NNC(=O)c1ccccc1O,·,·,-19%,4.1%
CN(C)C(=O)CSc1nnc(NC(=O)CCc2ccccc2)s1,-9%,6,-1%,-2.2%
CCOC(=O)c1ccc(S(=O)(=O)N2CCN(CCC#N)CC2)cc1,-2%,7,-3%,2.2%
O=C(c1cc(Cl)ccc1[N+](=O)[O-])N1CCc2ccccc2C1,1%,13,30%,0.6%
Cc1c(C)c2ccc(OC(C)C(=O)N3CC[C@@]4(O)CCCC[C@H]4C3)c(C)c2oc1=O (stereo partly specified),3%,·,-3%,0.5%
CCc1ccc(OCC(=O)N(Cc2ccccc2)C2CCS(=O)(=O)C2)cc1 (stereo unspecified),0%,·,4%,5.2%
CCOC(=O)CNC(=O)CSc1nnc(-c2ccco2)n1N,-6%,9,3%,0.1%
S=c1cn[nH]c2ccccc12,·,·,-19%,-5.5%
Cc1ccc(OCC(=O)N/N=C/c2ccc([N+](=O)[O-])o2)cc1,4%,-5,-1%,?
CC(=O)OC(C=C(C)C)C/C(C)=C/COc1c2ccoc2cc2oc(=O)ccc12 (stereo unspecified),·,·,?,-2.7%
CCOC(=O)CC1COCCN1Cc1cn[nH]c1-c1ccc2c(c1)OCO2 (stereo unspecified),0%,-2,15%,-1.1%
O=C(CN1CCN(c2ccccn2)CC1)Nc1ccc([N+](=O)[O-])cc1C(=O)Nc1ccccc1F,9%,·,6%,2.9%
Cc1ccc(N2CN=C3SCC(=O)N3C2)cc1C,-23%,7,-2%,-0.6%
O=C1C=C(c2ccc(-c3ccccc3)c(F)c2)C[C@@H](c2ccc3c(c2)OCO3)C1,·,·,-10%,1.2%
CCCC(=O)NCC(c1cccs1)S(=O)(=O)c1ccc(Cl)cc1 (stereo unspecified),-3%,·,?,-1.2%
Cc1cccc(NC(=O)N(C)Cc2cccs2)c1,-23%,1,9%,?
COC(=O)C1=C(C(=O)OC)[N+]2=C3N(C(=O)NC2(C)C)[C@H](CO)C[C@@]32c3ccccc3N(Cc3ccccc3)[C@@H]12,·,·,7%,-2.1%
CCCC(C)NC(=O)COc1ccc(Sc2ccc(OCC(=O)NC(C)CCC)cc2)cc1 (stereo unspecified),0%,8,2%,0.2%
CCCSc1sc(C(=O)OC)c(-c2cccs2)c1C#N,3%,10,2%,2.8%
CCOC(=O)C1CCCN(C(=O)CCNS(=O)(=O)c2cc(Br)cnc2N)C1 (stereo unspecified),0%,·,?,3.1%
COc1ccc(C(=O)OCc2ccccc2F)cc1S(=O)(=O)N1CCCC1,·,·,16%,-1.0%
O=C(Nc1ccc(S(=O)(=O)N2CCCC2)cc1)c1ccc(OCC2CCCO2)cc1 (stereo unspecified),20%,-6,-17%,-2.9%
Cc1ccc2nc3c(c(Nc4cccc(O)c4)c2c1)CCC3,21%,·,-2%,4.0%
Cc1ccc2oc(C(=O)NCc3ccc4c(c3)OCO4)c(C)c2c1,-1%,4,?,-0.4%
O=c1c(-c2ccccc2)coc2c(CN3CCCCC3)c(O)ccc12,-4%,·,1%,2.3%
O=C(c1snnc1-c1ccccc1)N1CCOCC1,1%,7,8%,3.9%
CCOc1ccc(C(C)C)cc1S(=O)(=O)Nc1ccc(Cl)cn1,0%,0,?,-0.2%
CCn1c(S(=O)(=O)O)nc2ccccc21,0%,-9,2%,0.1%
C/C(=N\Nc1cc(N2CCOCC2)nc(C)n1)c1cccc([N+](=O)[O-])c1,-6%,-2,1%,4.5%
O=C(Nc1ccccc1[N+](=O)[O-])c1cncc(Br)c1,-19%,3,2%,1.2%
CN(C)c1ccc(N=Nc2cccc3ccoc23)cc1,-74%,-7,33%,-0.5%
COCc1c(C#N)c(NCCc2ccc(F)cc2)nc(C)c1[N+](=O)[O-],-9%,-9,4%,-0.1%
CCSc1ncccc1-c1nc2ccccc2[nH]1,-48%,1,-5%,0.4%
C=CCNC(=O)C1(S(=O)(=O)c2ccccc2)CC=CC1,-6%,·,-1%,-1.0%
O=C(NNC(=O)c1ccncc1)Nc1ccc([N+](=O)[O-])cc1,2%,6,6%,-0.7%
CCC(=O)N1CCN(c2nc3ccccc3s2)CC1,-29%,3,3%,-0.4%
COCc1cc(=O)[nH]c(Nc2nc3ccccc3o2)n1,-1%,·,9%,-2.6%
COc1ccc(NC(=O)/C(C#N)=C/c2c(C)nn(-c3ccc(F)cc3)c2Cl)cc1Cl,-7%,5,26%,3.6%
COc1ccc(Br)cc1/C=C/c1ccc2cccc(O)c2n1,0%,·,12%,0.2%

# Later entries
SMILES,miR-21 FLuc,GLA inh pH 4.5,Rango dissoc inh,Rango complex inh
CCNC(=O)NC(=O)CSc1ccc2ccccc2c1,-3%,4,-2%,3.7%
O=C(Nc1nc(-c2ccncc2)cs1)c1ccc(F)cc1,-14%,6,-14%,-2.7%
CCN(CC)C(=O)C1CCN(S(=O)(=O)c2ccc3oc4ccccc4c3c2)CC1,2%,-6,-11%,-1.5%
COc1ccc(-n2c(Cc3cccn3C)nnc2SCC(=O)Nc2ccc(Cl)cc2)cc1,0%,-4,-1%,-1.3%
COc1ccccc1NC(=O)CSc1nnc(-c2ccoc2C)n1C,-6%,·,-2%,-0.4%
COc1ccc(Nc2oc(-c3ccco3)nc2S(=O)(=O)c2ccc(F)cc2)cc1,-16%,-8,-9%,?
COc1ccc(S(=O)(=O)N(C)CC(=O)Nc2ccccc2OC)cc1C,-4%,-5,-5%,-4.2%
O=C(CNS(=O)(=O)c1ccc2c(c1)OCCCO2)N1CCN(c2ccc(F)cc2)CC1,·,·,-20%,0.4%
O=C(COC(=O)/C=C/c1ccccc1Cl)NC1CCCC1,·,·,-1%,4.0%
CCN(CC)C(=O)CSc1nc2ncccc2[nH]1,-1%,8,0%,-0.1%
CCCCCCc1ccc(N2C[C@H](Cc3ccccc3)[C@@H](CC(=O)Nc3ccccc3)C2=O)cc1,-8%,·,37%,0.0%
Cc1c(NC(=O)c2cnn3cccnc23)c(=O)n(-c2ccccc2)n1C,-1%,0,-4%,3.1%
CC(C)C(=O)Nc1ccc2c(c1)nc(CCN1CCN(c3ccccc3)CC1)n2C,4%,7,7%,-2.4%
Cc1cccc(C(=O)Nc2sc(C(=O)N3CCCC3)c(C)c2C#N)c1,1%,1,?,?
CC(=O)Nc1ccc(NC(=O)c2oc3cc(C)c(C)cc3c2C)cc1,-6%,16,4%,1.0%
COc1ccccc1-c1c(C(F)(F)F)oc2cc(OC(=O)c3ccc([N+](=O)[O-])cc3)ccc2c1=O,-3%,·,-4%,-0.2%
CCOC(=O)C1CCCN(C(=O)Cc2c(C(=O)O)[nH]c3ccccc23)C1 (stereo unspecified),-1%,4,-5%,-4.0%
Cc1nc2ccccc2c(=O)n1NC(=O)COc1ccccc1,-4%,2,-14%,-4.1%
Cc1ccc(C)c(NC(=O)CN(C)C(=O)c2ccccc2Cc2ccccc2)c1,·,·,-2%,0.6%
Cc1nnc(NCCN2CCOCC2)[nH]c1=O,-1%,6,-8%,0.7%
COc1ccc(/C=C(/C#N)C(=O)Nc2cccc(C)c2C)cc1C(=O)O,-4%,-2,-1%,-0.3%
CC(=O)c1ccccc1OCCCOc1cccc2cccnc12,·,·,24%,-0.1%
c1cncc(CNc2ncn[nH]2)c1,1%,4,-17%,-5.9%
Cc1cc2n(n1)C(c1ccsc1)Nc1ccccc1-2 (stereo unspecified),-9%,-6,-12%,?
Cn1ncc(Cl)c1C(=O)NC1C2CC3CC(C2)CC1C3 (stereo unspecified),-8%,4,1%,0.1%
COc1ccc(-c2[nH]ncc2/C=N\NC(=O)c2ccc(C(C)(C)C)cc2)cc1OC,-31%,?,-12%,?
CCCNC(=O)Cn1c(=O)oc2cc(S(=O)(=O)N3CC(C)CC(C)C3)ccc21 (stereo unspecified),3%,·,-6%,-0.5%
CCc1cccc(NS(=O)(=O)c2ccc(-n3cccn3)cc2)c1,11%&15%,·,3%,-3.9%
COc1cc(S(=O)(=O)n2ccc(C)n2)ccc1Cl,-2%,·,0%,-0.3%
Cc1ccc(C(=O)Nc2nnc(NC(=S)Nc3ccccc3)s2)cc1,-27%,1,4%,-2.8%
COc1cc(Cl)c(S(=O)(=O)NCCCN2CCOCC2)cc1Cl,-2%,2,-4%,0.2%
CCCCOc1ccc(/C=c2\sc3ncnn3c2=O)cc1,-4%,2,14%,1.0%
C=CCc1c(OC)ccc2c1c(S(=O)(=O)c1ccc(C)cc1)cn2COC,-1%,·,14%,-0.2%
CN(C)c1ccc(C(=O)C(O)c2ccccc2Cl)cc1 (stereo unspecified),·,·,?,0.3%
CC(CN1CCCC1)OC(=O)c1ccc(F)cc1 (stereo unspecified),-4%,·,8%,5.1%
O=C(CN1CCN(S(=O)(=O)c2ccc(Br)cc2)CC1)N/N=C/c1ccco1,-8%,-7,-4%,3.4%
O=C(Oc1ccc(-c2cnc3ccccc3n2)cc1)c1ccc(Cl)c([N+](=O)[O-])c1,-7%,1,8%,0.9%
Cc1cccc(C(=O)NNC(=O)CSc2nnc(C3CC3)n2C)c1,1%,·,20%,5.8%
O=C1c2cccc([N+](=O)[O-])c2C(=O)N1C1CCCCC1,1%,·,4%,2.8%
CCOC(=O)c1c(C)[nH]c(C(=O)OCC(=O)N2c3ccccc3CC2C)c1C (stereo unspecified),10%,-3,-4%,2.9%
O=C1CC(c2ccccc2)Sc2nc3ccccc3n21 (stereo unspecified),-59%,7,-2%,-1.9%
O=C(O)C1C2C=CC(C2)C1C(=O)NC(c1ccccc1)c1ccccc1 (stereo unspecified),0%,1,12%,-0.6%
Cc1ccc(NC(=O)Nc2ccc3c(c2)N(C)C(=O)CS3)cc1C,20%,-5,-7%,0.8%
CS(=O)(=O)N1CCCC(C(=O)NCc2ccc(F)cc2Cl)C1 (stereo unspecified),-8%,4,9%,-0.3%
COc1ccc(CCNS(=O)(=O)c2ccc(OC)cc2)cc1,-5%,5,1%,0.9%

# Only part of the results is shown; rates above refer to the full screens.
